# FGF22 binding – FGF22 (human) thermal shift binding; Q9HCT0; recombinant FGF22 thermal shift, SYPRO orange fluorescence; percent of sucrose octasulfate shift, DMSO zero; calls only at 9.99 µM; 1.5% of 340,000 active;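 active = melting point raised past a set limit in the mean and every replicate; three in four hits are not shown here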
# Target sequence (Q9HCT0 whole entry, looked up): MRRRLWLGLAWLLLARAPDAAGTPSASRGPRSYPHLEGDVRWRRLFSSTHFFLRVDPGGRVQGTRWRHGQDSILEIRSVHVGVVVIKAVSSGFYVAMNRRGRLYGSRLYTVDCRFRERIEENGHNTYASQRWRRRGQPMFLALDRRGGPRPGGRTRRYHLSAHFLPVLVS
# rRNA inh HTS – selective bacterial rRNA inhibition in E. coli. E. coli WT GFP vs humanized-ribosome RFP mutants, fluorescence, 24 h; hits give low values; DMSO median 0, no signal -100. GFP signal change (wild-type ribosome), % (no concentration beside the values). 1.6% of 350,000 active;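 active = significant combined selectivity score with lowered wild-type GFP, culture density cut under 30%, mutant RFP and density less affected; inactive = any of these conditions unmet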; note: one replicate is shown; some compounds called inactive have numbers as strong as hits
# AF4-AF9 inh – MLL-AF4/AF9 protein interaction inhibition; inhibition, % at 10 µM; 0.47% of 350,000 active; AlphaScreen, biotin-AF4 peptide binding to FLAG-AF9;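 active = every replicate reaching a set inhibition limit, whatever the replicate mean, cut at about 25% in these data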;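 note: 0% = plate neutral control median and 100% = total signal loss; the record names both 10 and 1 µM as test concentration; the first replicate is given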
# Target sequence (P42568 whole entry, looked up): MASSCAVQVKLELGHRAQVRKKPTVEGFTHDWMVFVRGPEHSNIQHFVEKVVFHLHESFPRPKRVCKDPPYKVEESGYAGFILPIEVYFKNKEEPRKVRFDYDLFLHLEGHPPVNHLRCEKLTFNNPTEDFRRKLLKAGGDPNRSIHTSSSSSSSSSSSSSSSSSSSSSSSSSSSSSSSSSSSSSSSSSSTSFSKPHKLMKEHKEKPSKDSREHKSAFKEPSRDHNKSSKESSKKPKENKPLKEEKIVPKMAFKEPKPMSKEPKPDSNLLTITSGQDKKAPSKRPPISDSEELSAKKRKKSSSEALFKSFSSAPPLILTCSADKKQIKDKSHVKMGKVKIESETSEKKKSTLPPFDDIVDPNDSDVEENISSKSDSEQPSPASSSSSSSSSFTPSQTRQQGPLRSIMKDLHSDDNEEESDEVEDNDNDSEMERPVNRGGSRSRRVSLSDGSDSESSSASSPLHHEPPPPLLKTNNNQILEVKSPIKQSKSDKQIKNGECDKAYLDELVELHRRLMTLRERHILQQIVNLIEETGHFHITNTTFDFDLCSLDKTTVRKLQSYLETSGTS
# rRNA inh HTS OD600 – second read-out of rRNA inh HTS, no call of its own (marks repeat the call); OD600 change, %; measured here: OD600 growth;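 optical density of the mix in the first replicate; 0 = DMSO median and -100 = no signal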
# rRNA inh HTS RFP – recorded beside rRNA inh HTS, whose call it bears; RFP signal change, %; measured here: RFP humanized mutant strains;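 first replicate; 0 = DMSO median and -100 = no signal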
# The depositor's hits bear a star; i = inactive; · = no result given; + = active, no number; & = joins results of further samples; ! = a repeat was not active. Not all compounds are listed; rates above refer to the full screens.
(1) C[C@@H]1CN([C@@H](C)CO)C(=O)c2cc(NC(=O)CCC(F)(F)F)ccc2O[C@@H](C)CCCCO[C@H]1CN(C)C(=O)Nc1ccc(C(F)(F)F)cc1
(2) O=C(Cc1ccccc1)N1C[C@H]2[C@@H](c3ccccc31)[C@@H](CO)N2C(=O)Nc1ccc(F)cc1
(3) C[C@H](CO)N1C[C@H](C)[C@H](CN(C)Cc2ccccc2F)Oc2cc(C#CCN(C)C)ccc2S1(=O)=O
(4) Cc1cc(C(=O)OC(C)C(=O)Nc2cccc(Cl)c2)on1 (configuration not stated)
(5) OC(CSc1ccccc1)CN1CCN(c2ccc(Cl)cc2)CC1 (configuration not stated)
(6) CNC[C@@H]1OCCCC[C@@H](C)Oc2ccc(NC(=O)NC(C)C)cc2C(=O)N([C@H](C)CO)C[C@@H]1C
(7) COCC(=O)N1[C@H](C#N)[C@@H](c2ccccc2C2=CCCC2)[C@@H]1CO
(8) CC(C)(C)OC(=O)N(Cc1ccccc1)Cc1cccc(OCc2cccc(NC(=O)c3ccccc3)c2)c1

assay / entry	1	2	3	4	5	6	7	8
FGF22 binding	i	i	i	i	·	i	i	i
rRNA inh HTS	1	-6	-2	12	5	2	1	36
rRNA inh HTS OD600	-4	-10	1	11	-3	4	4	17
rRNA inh HTS RFP	1.5	1.8	-1.1	2.0	4.7	-1.2	0.3	1.7
AF4-AF9 inh	-0.1	-0.8	4.2	-0.6	4.3	-3.2	-3.9	-2.8

(9) N#CC(c1ccc(N)cc1)C(CC(=O)c1ccccc1)c1ccccc1 (configuration not stated)
(10) C[C@H]1CCCCO[C@H](CN(C)S(=O)(=O)c2ccc(Cl)cc2)[C@@H](C)CN([C@@H](C)CO)C(=O)c2cc(NC(=O)c3ccncc3)ccc2O1
(11) CC(=O)Nc1c(Br)cc2c(c1Br)Cc1cc([N+](=O)[O-])ccc1-2
(12) CCCNC(=O)N(C)C[C@@H]1Oc2ncc(C#Cc3ccncc3)cc2C(=O)N([C@H](C)CO)C[C@@H]1C
(13) COc1ccc(CN(C)C[C@H]2OCCCC[C@@H](C)Oc3ccc(NS(=O)(=O)c4ccc(Cl)cc4)cc3C(=O)N([C@H](C)CO)C[C@@H]2C)cc1
(14) Cc1ccc(S(=O)(=O)Nc2ccc3c(c2)C(=O)N([C@@H](C)CO)C[C@H](C)[C@H](CN(C)C(=O)Nc2cccc4ccccc24)OCCCC[C@@H](C)O3)cc1
(15) O=C(Cc1ccccn1)N[C@@H]1CC[C@@H](CCn2cc(-c3cccnc3)nn2)O[C@H]1CO
(16) Cc1ccc(S(=O)(=O)Nc2ccc3c(c2)C(=O)N([C@H](C)CO)C[C@H](C)[C@@H](CN(C)C(=O)Nc2cccc4ccccc24)OCCCC[C@@H](C)O3)cc1

assay / entry	9	10	11	12	13	14	15	16
FGF22 binding	i	i	i	i	i	i	i	i
rRNA inh HTS	-8	-3	6	3	3	-1	0	2
rRNA inh HTS OD600	-12	-6	10	-6	-13	1	7	2
rRNA inh HTS RFP	-2.6	5.3	-1.9	-0.9	8.3	-3.3	0.5	-2.3
AF4-AF9 inh	0.9	0.4	-1.4	-7.7	-2.4	-6.7	2.0	-0.4

(17) C[C@@H]1CN([C@H](C)CO)C(=O)c2cc(-c3ccccc3)cnc2O[C@@H]1CN(C)Cc1ccccn1
(18) C[C@@H]1CN([C@@H](C)CO)C(=O)CCCn2nncc2CO[C@@H]1CN(C)S(=O)(=O)c1ccc(F)cc1
(19) CC(=O)OC[C@@H]1CN(Cc2ccccc2)C[C@H](n2cnc3c(N4CCN(c5ccccc5)CC4)ncnc32)O1
(20) CC(=O)N(C[C@H]1N[C@H](CO)[C@@H]1c1ccc(-c2ccccc2)cc1)C(C)C
(21) Cc1ccc(S(=O)(=O)N(C)C[C@@H]2Oc3ccc(NC(=O)C4CC4)cc3CC(=O)N([C@@H](C)CO)C[C@H]2C)cc1
(22) COc1ccc(S(=O)(=O)Nc2ccc3c(c2)CC(=O)N([C@H](C)CO)C[C@@H](C)[C@H](CN(C)S(=O)(=O)c2ccc(Cl)cc2)O3)cc1
(23) C[C@H](CO)N1C[C@H](C)[C@H](CN(C)S(=O)(=O)c2cccs2)Oc2ccc(NC(=O)CCN3CCOCC3)cc2C1=O
(24) O=S(=O)(N[C@H]1CC[C@@H](CCn2cc(Cc3ccccc3)nn2)O[C@@H]1CO)c1ccccc1F

assay / entry	17	18	19	20	21	22	23	24
FGF22 binding	i	+!	i	i	i	i	i	i
rRNA inh HTS	3	8&-2	4	2	-1	-2	-2	-4
rRNA inh HTS OD600	7	0&-2	4	8	-3	-14	-2	-2
rRNA inh HTS RFP	-1.0	0.1&0.6	7.0	2.9	-2.5	0.8	-2.3	1.0
AF4-AF9 inh	-21	-2.7&-15	2.6	3.4	-0.6	-3.6	-13	0.6

(25) COc1cc(CCN(C(=O)c2cc3ccccc3[nH]2)C(c2ccccn2)c2nc3ccccc3[nH]2)cc(OC)c1 (configuration not stated)
(26) CO[C@H]1CC[C@H]2CCN(C)C(=O)[C@@H](C)N(C)C(=O)c3cccc(C#N)c3OC[C@@H]1O2
(27) C[C@H](CO)N1C[C@H](C)[C@@H](CN(C)C(=O)Nc2ccc(F)cc2)Oc2c(cccc2N(C)C)C1=O
(28) COc1cccc(S(=O)(=O)N2CC3(CN[C@H](CO)c4c3c3ccc(OC)cc3n4C)C2)c1
(29) CO[C@@H]1CN(C)C(=O)c2ccc(NC(=O)c3cc(C)on3)cc2OC[C@H](C)NC[C@@H]1C
(30) C[C@H]1CN([C@@H](C)CO)C(=O)c2cc(C#CCN(C)C)cnc2O[C@@H]1CN(C)C(=O)Nc1cc(F)ccc1F
(31) COc1ccc(NC(=O)Nc2ccc3c(c2)C(=O)N([C@@H](C)CO)C[C@@H](C)[C@H](CN(C)S(=O)(=O)c2ccc(Cl)cc2)OCCCC[C@@H](C)O3)cc1
(32) CN1C(=O)c2cc(NC(=O)c3ccc(Cl)cc3)ccc2OC[C@@H]2O[C@H](CC(=O)NCc3cccc(F)c3)CC[C@H]21

assay / entry	25	26	27	28	29	30	31	32
FGF22 binding	i	i	i	i	i	i	i	i
rRNA inh HTS	-26*	3	0	-4	1	1	8	-8
rRNA inh HTS OD600	-8.8*	3	7	-21	3	9	13	-18
rRNA inh HTS RFP	-0.6*	-3.5	0.0	1.8	-0.5	-0.5	-0.6	7.0
AF4-AF9 inh	0.0	1.9	-2.9	11	-3.3	1.2	4.6	-0.7

# 3 entries already listed, sorted by the number in rRNA inh HTS RFP, lowest first.
(26) CO[C@H]1CC[C@H]2CCN(C)C(=O)[C@@H](C)N(C)C(=O)c3cccc(C#N)c3OC[C@@H]1O2
(30) C[C@H]1CN([C@@H](C)CO)C(=O)c2cc(C#CCN(C)C)cnc2O[C@@H]1CN(C)C(=O)Nc1cc(F)ccc1F
(32) CN1C(=O)c2cc(NC(=O)c3ccc(Cl)cc3)ccc2OC[C@@H]2O[C@H](CC(=O)NCc3cccc(F)c3)CC[C@H]21

assay / entry	26	30	32
FGF22 binding	i	i	i
rRNA inh HTS	3	1	-8
rRNA inh HTS OD600	3	9	-18
rRNA inh HTS RFP	-3.5	-0.5	7.0
AF4-AF9 inh	1.9	1.2	-0.7

# Next results:
(33) C[C@H](CO)N1C[C@H](C)[C@H](CN(C)C(=O)c2ccc3c(c2)OCO3)Oc2cc(-c3ccccc3)ccc2S1(=O)=O
(34) CC(=O)NC[C@H]1[C@@H](c2ccc(-c3ccccc3F)cc2)[C@@H](CO)N1C(=O)C1CC1
(35) C[C@@H]1CN([C@@H](C)CO)C(=O)c2cccc(NC(=O)Nc3ccccc3)c2O[C@@H]1CN(C)Cc1ccccc1
(36) C[C@H]1CN([C@@H](C)CO)C(=O)Cc2cc(NC(=O)Cc3ccccc3)ccc2O[C@H]1CN(C)Cc1ccccc1
(37) C[C@@H]1CN([C@H](C)CO)C(=O)CCCn2cc(nn2)CO[C@H]1CN(C)S(=O)(=O)c1cn(C)cn1
(38) CCNC(=O)C[C@H]1CC[C@H]2[C@H](COc3ccc(NC(=O)c4cccs4)cc3C(=O)N2C)O1
(39) N#C[C@H]1[C@H](c2ccc(C3=CCCCC3)cc2)[C@@H](CO)N1S(=O)(=O)c1ccccc1
(40) C[C@H]1CN([C@@H](C)CO)C(=O)CCCn2nncc2CO[C@@H]1CN(C)Cc1cccc(C(F)(F)F)c1

assay / entry	33	34	35	36	37	38	39	40
FGF22 binding	i	i	i	i	i	i	i	i
rRNA inh HTS	-14	-5	-2	-10	3&17	3	-3	-2&-6
rRNA inh HTS OD600	-2	-3	-5	-50	3&6	1	-40	-2&-2
rRNA inh HTS RFP	0.1	-1.8	1.1	20	-1.5&28	-3.3	31	-1.3&-0.2
AF4-AF9 inh	-2.7	2.9	0.4	-2.1	1.2&4.3	0.6	-1.0	2.4&0.5

(41) CCCC(=O)Nc1ccc2c(c1)C(=O)N(C)[C@H]1CC[C@H](CC(=O)NCC3CC3)O[C@@H]1CO2
(42) C[C@H](O)C#Cc1cnc2c(c1)C(=O)N([C@H](C)CO)C[C@H](C)[C@@H](CN(C)C(=O)Nc1ccc(F)cc1)O2
(43) NC(=S)c1csc(CCNC(=O)c2ccccc2)n1
(44) COc1ccccc1NC(=O)N(C)C[C@@H]1OCc2ccccc2-c2c(n(C)c3ccccc23)C(=O)N([C@@H](C)CO)C[C@@H]1C
(45) C[C@@H]1CN([C@H](C)CO)C(=O)c2cccc(NS(=O)(=O)c3ccccc3)c2O[C@H]1CN(C)C(=O)Nc1ccc2c(c1)OCO2
(46) COc1ccc(S(=O)(=O)Nc2ccc3c(c2)C(=O)N([C@H](C)CO)C[C@H](C)[C@@H](CN(C)C(=O)Nc2ccc4c(c2)OCO4)OCCCC[C@@H](C)O3)cc1
(47) Cc1ccc(-c2cnc3c(c2)C(=O)N([C@H](C)CO)C[C@H](C)[C@H](CN(C)C(=O)Cc2cccnc2)O3)cc1
(48) N#C[C@H]1[C@@H](c2ccc(C#CC3CC3)cc2)[C@@H](CO)N1C(=O)c1cccc(F)c1

assay / entry	41	42	43	44	45	46	47	48
FGF22 binding	i	i	i	i	i	i	i	i
rRNA inh HTS	3	1	2	-1	0	0	4	2
rRNA inh HTS OD600	7	10	8	3	-3	1	7	-6
rRNA inh HTS RFP	-2.5	-3.4	-3.6	1.0	3.1	-1.1	0.2	1.4
AF4-AF9 inh	-3.1	-1.2	-0.9	0.5	-1.9	-1.4	-2.1	-0.9

(49) CC1(C(=O)NS(=O)(=O)c2ccc3ccccc3c2)CCN1C(=O)C1(c2ccc(Cl)cc2)CCC1 (configuration not stated)
(50) C[C@H]1CCCCO[C@@H](CN(C)Cc2ccncc2)[C@@H](C)CN([C@@H](C)CO)C(=O)c2cc(NC(=O)c3ccncc3)ccc2O1
(51) Cn1cnc(CCNC(=O)C[C@@H]2CC[C@@H]3[C@H](COC[C@@H](O)CN3C(=O)Nc3ccccc3)O2)c1
(52) CCCNC(=O)N1C[C@@H](O)COC[C@H]2O[C@H](CC(=O)N3CCOCC3)CC[C@@H]21
(53) C[C@H]1CN([C@@H](C)CO)S(=O)(=O)c2ccc(-c3cncnc3)cc2O[C@@H]1CN(C)C(=O)Cc1ccncc1
(54) CCOC(=O)Cc1csc(NC(=O)c2ccc(C)c(S(=O)(=O)N3CCOCC3)c2)n1
(55) CN(NC(=O)C(=O)NCc1ccco1)C(=O)Nc1ccc(Cl)cc1
(56) C[C@H](CO)N1C[C@H](C)[C@H](CN(C)Cc2ccc(C(F)(F)F)cc2)Oc2ccc(NS(C)(=O)=O)cc2C1=O

assay / entry	49	50	51	52	53	54	55	56
FGF22 binding	i	i	i	i	i	i	i	i
rRNA inh HTS	-33	-3	-1	2	-4	-12	-30	-4
rRNA inh HTS OD600	-60	2	-3	8	1	-34	-36	1
rRNA inh HTS RFP	-13	0.4	0.9	-2.7	2.5	-13	-5.6	-0.7
AF4-AF9 inh	-6.8	-3.8	1.1	-2.3	-0.1	0.7	0.2	-14

(57) CC(=O)Nc1cccc(-c2ccnc3c2CC(C)(C(=O)Nc2ccc(C(C)C)cc2)O3)c1 (configuration not stated)
(58) C[C@H]1CN([C@@H](C)CO)C(=O)Cc2cc(NS(=O)(=O)c3ccc(F)cc3)ccc2O[C@@H]1CN(C)CC1CC1
(59) C[C@@H]1CN([C@@H](C)CO)S(=O)(=O)c2ccc(C#CC(C)(C)O)cc2O[C@H]1CN(C)Cc1ccc(-c2ccccc2)cc1
(60) CC(C)c1ccc(C2OCC(C)([N+](=O)[O-])CO2)cc1 (configuration not stated)
(61) CCC(=O)N(C)C[C@@H]1[C@@H](c2ccc(C3=CCCC3)cc2)[C@H](CO)N1C(=O)CC
(62) O=C(O)c1ccc(-c2ccc(/C=C3\NC(=O)N(Cc4ccc(Cl)cc4)C3=O)o2)cc1
(63) CC(C)NC(=O)N(C)C[C@@H]1Oc2cc(-c3ccncc3)ccc2S(=O)(=O)N([C@@H](C)CO)C[C@@H]1C

assay / entry	57	58	59	60	61	62	63
FGF22 binding	·	i	i	i	i	i	i
rRNA inh HTS	6	1	2	10	-4	3	4
rRNA inh HTS OD600	-23	-1	12	-21	15	2	-1
rRNA inh HTS RFP	-0.5	-1.3	0.2	-1.7	2.3	-5.6	-1.0
AF4-AF9 inh	0.3	-0.2	-0.9	-0.4	0.0	2.8	-3.3

# Source: PubChem (Broad Institute)
